TRPML1 inh: blocks the human TRPML1 channel; Q9GZU1; TRPML1-inducible cells, Ca2+ dye fluorescence, FDSS; hits give low values; inhibition of EC80 agonist-evoked calcium signal; activity change, negative = inhibition, % (no concentration beside the values); hit rate 0.02% among 390,000; AID 624415; in the data active means activity change below about -50%; inconclusive means about -30% to -50%; inactive means above about -30%;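 note: stimulus is agonist 54-4 at its EC80 concentration; % is set by controls: 0 for no effect and ±100 for the full control effect; compound concentration not given in the record; the text of the record puts the active cut at -80%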
Target sequence (Q9GZU1 whole entry, looked up): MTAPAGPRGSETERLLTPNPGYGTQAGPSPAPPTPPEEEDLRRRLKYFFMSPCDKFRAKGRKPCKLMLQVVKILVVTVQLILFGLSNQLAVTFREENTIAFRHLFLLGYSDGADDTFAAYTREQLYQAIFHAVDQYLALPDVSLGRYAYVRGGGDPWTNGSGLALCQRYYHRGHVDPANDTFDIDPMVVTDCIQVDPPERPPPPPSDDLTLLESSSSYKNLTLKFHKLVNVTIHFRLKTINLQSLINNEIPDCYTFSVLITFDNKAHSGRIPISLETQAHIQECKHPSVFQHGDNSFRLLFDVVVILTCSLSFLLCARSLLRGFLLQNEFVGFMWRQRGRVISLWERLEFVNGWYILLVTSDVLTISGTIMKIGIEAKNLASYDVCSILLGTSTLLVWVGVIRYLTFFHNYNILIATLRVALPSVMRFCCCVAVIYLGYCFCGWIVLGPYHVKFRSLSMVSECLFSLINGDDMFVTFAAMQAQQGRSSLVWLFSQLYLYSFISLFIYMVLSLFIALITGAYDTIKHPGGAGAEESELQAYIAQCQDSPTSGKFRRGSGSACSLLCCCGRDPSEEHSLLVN
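Tet-induced TRPML1-DL cells loaded with Ca8 no-wash calcium dye were read kinetically on FDSS. Compound addition was followed by EC80 agonist 54-4 (4 uM final); inhibition was read over 110 s.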
ClpP mod: qHTS Assay for Activators of ClpP. purified B. subtilis ClpP, FRET peptide cleavage, 20 min. AID 651965, 2013. hit rate 1.9% among 340,000. Potency, µM (highest dose often 57.5 µM), for the others: top-dose activity change, negative = active; active = well fitted falling curve with a large enough effect; inconclusive = small, poorly fitted or top-dose-only effect; inactive = no such curve, though single readings can be large or run the other way; note: potency is the fitted concentration of half-maximal effect; the source files actives as falling curves though it sought activators and does not explain the sign; nearly all actives have a fitted effect of over 65% in size; many hits overshoot -100%
Target sequence (P80244 whole entry, looked up): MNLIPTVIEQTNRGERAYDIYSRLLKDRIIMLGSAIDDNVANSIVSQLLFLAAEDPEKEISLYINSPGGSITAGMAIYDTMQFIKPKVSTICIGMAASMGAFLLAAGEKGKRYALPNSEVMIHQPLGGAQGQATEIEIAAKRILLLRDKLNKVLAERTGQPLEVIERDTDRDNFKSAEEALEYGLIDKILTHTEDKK
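ClpP 10 microg/mL final, pH 8 Tris/KCl buffer with BSA, glycerol, Tween-20; compound pinned in; FRET-FV substrate; RT 20 min; Ex320/Em430; ΔFRET vs ADEP 5.8 microM, DMSO, no enzyme.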
TRPML1 ag: activates the human TRPML1 channel; TRPML1-expressing cells, Ca2+ dye fluorescence, FDSS; host cell line not named in the record; reference of the full effect not given here; hit rate 0.12% among 410,000; activation, % (concentration not given with the values); AID 624414; in the data active = activation above about 50%; inconclusive = about 30% to 50%; inactive = below about 30%; note: 0% is about no effect; the text of the record puts the active cut at 80%
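Tet-induced TRPML1-DL cells, 1,500 per well, cultured overnight, were loaded with a no-wash Ca2+ dye for 45–90 min. Calcium fluorescence was recorded on the FDSS for 110 s after compound addition, before the EC80 agonist (4 uM 54-4) was added.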
Menin-MLL FL inh: menin-MLL binding inhibition, fluorescein peptide | 290,000 tested, under 10 active | FP activity change, % at 61.4 µM | Fluorescence polarization, fluorescein-MLL peptide displacement from menin; inconclusive = falling polarisation curve, or a change in total fluorescence; inactive = total fluorescence flat and polarisation flat or rising; no compound was filed as active; the % refers to the polarisation; negative = inhibition;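 note: % of control where 0% means no effect; inhibitors lower the polarisation; unlabelled MLL peptide was the positive control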
gsp agonist: activates gsp, the McCune-Albright syndrome mutation; gsp mutant cells, cAMP HTRF, 30 min; control for the full effect not named in the record; hit rate 0.13% among 340,000; AID 624287; Potency, µM (doses to about 76.9 µM), for inactives: top-dose activation (cAMP increase), actives largely listed as activators; active = well fitted activation curve with a large enough effect; inconclusive = small, poorly fitted or top-dose-only effect, or another doubt; inactive = no such curve, though single readings can be large or run the other way; cell line not stated here;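 note: phosphodiesterase inhibitor Ro 20-1724 added with compounds to block cAMP breakdown; potency is the fitted concentration of half-maximal effect; nearly all actives have a fitted effect of over 60% in size; about a fifth of the inactives were tested at one dose only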
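Cells in DMEM/10% FBS with G418 were pretreated with compounds in DMSO plus […] (300 uM stock) for 30 min at 37C. cAMP was measured by HTRF (cAMP-d2 plus anti-cAMP antibody-K) after 30 min at room temperature.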
gsp antag: gsp mutant antagonism; AID 624288; hit rate 0.4% among 340,000; Potency, µM (top dose mostly 76.9 µM), without a hit: at the highest dose activity change, negative = inhibition, actives largely listed as inhibitors; gsp-mutant cells, cAMP HTRF, 30 min; control for the full effect not named in the record; active = falling curve of any shape with a large fitted effect; inconclusive = falling curve, mostly with a smaller effect; inactive = flat or rising curve; cell line not stated here;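 note: intracellular cAMP measured with PDE inhibitor Ro 20-1724 present during compound exposure; potency is the fitted concentration of half-maximal effect; % is set by controls: 0 for no effect and ±100 for the full control effect; nearly all actives have a fitted effect of over 65% in size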
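HTRF cAMP measurement after 30 min RT detection following 30 min, 37C compound treatment alongside […] (added as 300 uM solution) in G418-selected cells seeded at 2000/well and grown 16–24 h.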
Numbers without * were called inactive; ? = inconclusive; / = no result given; [ ] = dose if it differs, or a comment.

SMILES | TRPML1 inh | ClpP mod | TRPML1 ag | Menin-MLL FL inh | gsp agonist | gsp antag
CC1CC(C)CN(CCCNC(=O)c2ccc3nc(N4CCCCC4)sc3c2)C1 (configuration not stated) | 3 | 3.1% | -0.2 | 0.0 | -11% | 3%
COc1ccc(/C=C2\Oc3cc(OCC(N)=O)ccc3C2=O)cc1OC | -2 | -6.3% | 1.8 | 10 | ? | -1%
O=C(CCC(=O)N(CC(=O)NC1CCCC1)C1CCCCC1)Nc1ccccn1 | 3 | 0.4% | -0.6 | 5.2 | -18% | 16%
Cc1ccc(S(=O)(=O)CCC(=O)Nc2nccs2)cc1 | 50 | 1.3% | -1.0 | 6.6 | -16% | 4%
CCOC(=O)Cn1c(=O)n(C2CCCCC2)c2nc(-c3ccc(Cl)cc3)nc(C(N)=O)c21 | -2 | -15% | 0.3 | / | / | /
CCN(CC)c1cccc(OCC(=O)N2c3ccccc3CC2C)c1 (configuration not stated) | 5 | 1.3% | 0.9 | / | 1% | ?
Cn1c(NCc2cccnc2)nc2cc(-c3ccc(F)cc3)sc2c1=O | 52 | -16% | 1.9 | / | / | /
CC(C)(C)c1ccc(Oc2ncccc2NC(=O)c2cccs2)cc1 | 20 | -12% | 2.2 | 0.4 | 2% | -3%
CCOc1ccc(C(=O)NCC(=O)Nc2ncccc2C)cc1OCC | 11 | -10% | 0.0 | / | -5%[15.4 µM] | 6%
CC(=O)N(Cc1cc(=O)[nH]c2ccccc12)c1ccc(C)cc1 | 11 | -9.1% | -0.1 | 0.9 | -6% | 10%
COc1ccc(C2OC(=O)Cc3cc(OC)c(OC)cc32)cc1 (configuration not stated) | -1 | / | -0.8 | -3.8 | -8%[15.4 µM] | -2%
O=C(CNCc1ccccn1)Nc1ccc([N+](=O)[O-])cc1C(=O)Nc1ccccc1F | 21 | -3.0% | 0.0 | 1.9 | 18%[15.4 µM] | -34%
COc1ccc(S(=O)(=O)NCCC(=O)NC2CCCCCCC2)cc1 | 10 | 0.9% | 1.5 | -1.7 | 26% | -10%
O=C1Nc2cc(C(=O)NCCCN3CCOCC3)ccc2S/C1=C/c1cccc(Cl)c1 | 14 | 0.6% | -0.1 | / | 2% | 4%
Cc1ccc(NC(=O)CN(C)C(=O)c2ccccc2Cc2ccccc2)cc1 | 6 | / | 0.5 | / | 22%[15.4 µM] | -6%
Cc1nn(C)cc1CNC(=O)Nc1ccc(Cl)c(Cl)c1 | 10 | -0.7% | -0.5 | 1.5 | -13% | -10%
Cc1ccc(C(=O)N/N=C2\SCC(=O)N2c2cc(C)ccc2C)cc1 | -3 | -0.5% | 1.4 | 3.0 | 2% | -11%
CCOC(=O)C1(CC2CCCCO2)CCN(S(=O)(=O)c2ccccc2)CC1 (configuration not stated) | 6 | 0.7% | 0.1 | 2.4 | -25% | 6%
CC(Sc1nnc(CC(C)c2ccccc2)n1N)C(N)=O (configuration not stated) | / | 0.5% | / | -14 | 3% | 5%
CCOCCCNC(=O)C1CCN(C(=O)Nc2ccc(C)cc2)CC1 | 2 | 0.4% | -0.6 | 0.6 | -106%[inhibitor] | 3%

Part of the list above, reduced to gsp agonist, ClpP mod and gsp antag.
smiles	gsp agonist	ClpP mod	gsp antag
CCN(CC)c1cccc(OCC(=O)N2c3ccccc3CC2C)c1 (configuration not stated)	1%	1.3%	?
Cn1c(NCc2cccnc2)nc2cc(-c3ccc(F)cc3)sc2c1=O	/	-16%	/
CC(C)(C)c1ccc(Oc2ncccc2NC(=O)c2cccs2)cc1	2%	-12%	-3%
CCOc1ccc(C(=O)NCC(=O)Nc2ncccc2C)cc1OCC	-5%[15.4 µM]	-10%	6%
CC(=O)N(Cc1cc(=O)[nH]c2ccccc12)c1ccc(C)cc1	-6%	-9.1%	10%

(continued)
SMILES | TRPML1 inh | ClpP mod | TRPML1 ag | Menin-MLL FL inh | gsp agonist | gsp antag
Cc1cc(C(=O)NNC(=O)c2cccc([N+](=O)[O-])c2)n[nH]1 | 1 | 0.7% | -0.7 | / | -2% | 17%
CCNC(=O)CN1C(=O)NC(CCc2ccccc2)C1=O (configuration not stated) | 1 | -3.1% | -0.3 | -0.6 | -19% | 2%
N#Cc1nc(Cc2cccc3ccccc23)oc1N1CCOCC1 | 8 | -3.3% | 1.0 | -1.8 | -25% | 2%
COc1ccc(OCc2cccc(C(=O)Nc3ccc(CN4CCCCC4)cc3)c2)cc1 | -10 | 2.0% | -0.1 | 1.3 | -1% | 21%
CCCN(Cc1cccs1)C(=O)Nc1cc(OC)ccc1OC | 52 | -3.6% | 1.2 | / | / | /
Nc1n[nH]c(N)c1N=Nc1ccccc1 | 5 | / | 0.9 | 3.5 | -2%[15.4 µM] | /
COc1ccccc1NC(=O)COC(=O)COc1ccccc1F | -13 | -1.7% | -1.2 | / | 3% | 0%
CC(=O)N(CCN1CCOCC1)Cc1cc2cc3c(cc2nc1Cl)OCO3 | 21 | -20% | 0.1 | -0.3 | 3% | 1%
O=C1NC[C@H](c2ccccc2)N(CCc2cc(C(F)(F)F)cc(C(F)(F)F)c2)C1=O | 3 | 1.3% | 1.6 | 3.6 | ? | 2%
CCOc1ccc(NC(=O)CCSc2nc(-c3ccc4c(c3)OCO4)cc(C(F)(F)F)n2)cc1 | 4 | 3.4% | 1.2 | / | / | /
O=C(CSc1nc2nc(-c3cccs3)cc(C(F)(F)F)c2c(=O)[nH]1)Nc1c(F)c(F)c(F)c(F)c1F | 1 | / | 0.6 | 1.1 | 23% | -12%
CCOC(=O)C1(CC2CCCCO2)CCN(Cc2ccccc2-c2ccco2)CC1 (configuration not stated) | 3 | 0.5% | 0.0 | 6.1 | -32% | -6%
Nc1ccc(C#Cc2ccc3sc4ccccc4c(=O)c3c2)cc1 | -27 | 0.0% | -0.6 | / | 37% | 12%
O=C(Cn1nnc(-c2ccccc2)n1)NCc1ccc2c(c1)OCO2 | 5 | 0.5% | -0.1 | 2.4 | -5% | -14%
O=C(CCNC(=O)c1ccco1)NC(Cc1c[nH]c2ccccc12)C(=O)O (configuration not stated) | -3 | -4.3% | -0.5 | / | 16% | 3%
Fc1cccc(/C=N/Nc2ccccn2)c1 | 24 | / | 2.7 | -5.3 | -20%[15.4 µM] | -4%
O=C(O)CC(NC(=O)C12CC3CC(CC(C3)C1)C2)c1cccc([N+](=O)[O-])c1 (configuration not stated) | -9 | / | -0.8 | -1.5 | -1%[15.4 µM] | 6%
CCOC(=O)c1ccc(Nc2nc3ccc(C(=O)c4ccccc4)cc3n3c(C)nnc23)cc1 | 0 | -2.2% | 2.5 | / | / | /
COc1cccc(CNC(=O)C2CCN(c3cnccn3)CC2)c1 | 8 | -7.9% | -0.7 | 0.2 | 23% | 3%
COC(=O)NC(NC(=S)Nc1cccc(C)c1)C(Cl)(Cl)Cl (configuration not stated) | -3 | / | 0.0 | -0.8 | 2%[15.4 µM] | /
COc1cccc(CNS(=O)(=O)c2ccc3c(c2)C(C(C)C)C(=O)N3)c1 (configuration not stated) | 3 | 2.7% | -0.6 | / | / | /
CCN(C1CCS(=O)(=O)C1)S(=O)(=O)c1cc(C)ccc1C (configuration not stated) | 1 | / | -0.3 | / | -18%[15.4 µM] | 3%
COC(=O)c1ccccc1NC(=O)CN(c1c(C)cccc1C)S(C)(=O)=O | -12 | / | -0.8 | -1.9 | -8% | 1%
O=C(COC(=O)c1ccc([N+](=O)[O-])cc1)NCCC1=CCCCC1 | 5 | 1.4% | 0.8 | / | ? | 16%
COc1ccc(-n2ccnc(NCc3cccs3)c2=O)cc1OC | 24 | -3.0% | -0.2 | / | / | /
CCN(C(=O)COC(=O)c1ccco1)c1c(N)n(Cc2ccccc2)c(=O)[nH]c1=O | 2 | -0.4% | 0.0 | / | -19% | 19%
O=C(CSc1nnc(-c2ccccn2)n1Cc1ccccc1)Nc1ccc2c(c1)OCO2 | 4 | 1.6% | 0.9 | 3.3 | -4% | 15%
CCOc1ccccc1OCCOc1ccc(F)cc1 | 4 | -1.7% | 0.3 | -0.4 | 1% | -2%
COc1ccc(Cl)cc1NC(=O)CN(C)C(=O)Cc1n[nH]c(=O)c2ccccc12 | 6 | -0.5% | 0.1 | / | 5% | ?
COc1ccc(NS(=O)(=O)c2cc(NC(=O)c3ccc(Cl)cc3)ccc2N2CCOCC2)cc1 | -3 | / | -0.8 | / | 5% | -3%
O=C(NNS(=O)(=O)c1ccccc1)C1CC(c2cccnc2)=NO1 (configuration not stated) | 4 | / | -0.8 | -0.8 | -14%[15.4 µM] | 8%
COc1ccc(NC(=O)NNC(=O)COc2ccc3cc(Br)ccc3c2)cc1 | -9 | -1.7% | 0.2 | -5.0 | 33%[15.4 µM] | 27%
CC(C)(C)c1csc(Sc2ncccc2[N+](=O)[O-])n1 | -7 | -2.6% | 0.2 | -0.5 | 7% | -1%
Cc1ccc(NC(=O)C2CCCN(c3ncnc4onc(C)c34)C2)cc1Cl (configuration not stated) | -9 | 1.1% | 0.1 | / | / | /
Cc1ccc(NC(=O)CN(C)CC(=O)N(C)Cc2ccccc2)cc1 | -3 | -1.0% | -0.8 | / | 20% | 5%
CCOC(=O)c1c(NC(=O)CSc2nnc(N)s2)sc(C)c1-c1ccc(C)cc1 | 1 | 0.3% | 1.9 | 2.8 | -12% | ?
C=COCCNC(=O)C1CC(=O)N(c2ccc(C)cc2)C1 (configuration not stated) | -1 | -0.7% | -0.6 | 5.0 | -19% | 7%
COc1cccc(Nc2nc(-c3sc(NC(=O)c4ccccc4)nc3C)cs2)c1 | -2 | -1.3% | 1.2 | 0.9 | / | -5%
Cc1ccc(S(=O)(=O)N2CCC(C(=O)OCC(=O)N3CCc4ccccc43)CC2)cc1 | -7 | 0.3% | 2.7 | 2.1 | -24% | -5%
O=S(=O)(c1ccc(Br)s1)N1CCNCC1 | / | -2.3% | / | 2.8 | ? | -1%
COc1ccc(S(=O)(=O)N2CCN(c3ccccc3)CC2)cc1C(=O)N1CCCC1 | 15 | -2.5% | 1.3 | / | -2% | 2%
C=C(CCO)C1=CCN(S(=O)(=O)C(C)(C)C)[C@H]1CCO | -2 | 1.9% | -0.2 | / | / | 5%
CN(C)/C=N/c1[nH]ncc1C#N | -11 | / | -0.7 | 2.2 | 7%[15.4 µM] | 0%
Cc1ccc2[nH]c(=O)c(CN(Cc3cccs3)C(=S)NCc3ccco3)cc2c1 | 0 | -29% | 1.0 | 24 | -7% | -5%

Of the compounds above, these have bromine.
SMILES | TRPML1 inh | ClpP mod | TRPML1 ag | Menin-MLL FL inh | gsp agonist | gsp antag
COc1ccc(NC(=O)NNC(=O)COc2ccc3cc(Br)ccc3c2)cc1 | -9 | -1.7% | 0.2 | -5.0 | 33%[15.4 µM] | 27%
O=S(=O)(c1ccc(Br)s1)N1CCNCC1 | / | -2.3% | / | 2.8 | ? | -1%

Compound activity: PubChem BioAssay, National Center for Advancing Translational Sciences (NCATS)
